E coli growth = blocks Escherichia coli growth; AID 1053175; OD600, 23 h; stronger effect = lower value; OD600 absorbance (no concentration beside the values); 330,000 compounds, 0.21% hits;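 active = OD600 absorbance below the run mean of sample wells minus 3.6 SD, in any replicate, cut at about 0.56 in these data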;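 also: stock transfer was 300 nL into about 60 µL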
LANA-H2B inh = blocks KSHV LANA binding to histone H2A/H2B | Q9QR71 | cell-free LANA-H2A/H2B peptide, fluorescence polarization | inhibition, % (concentration not given with the values) | 320,000 compounds, 0.6% hits | AID 2629; in the data active = inhibition mostly above about 10%, no sharp cut-off; inactive = mostly below about 6.7%;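 also: stock transfer was 7.5 nL into about 10 µL; 0% = median of vehicle wells and 100% = median of positive control wells; one replicate is shown; the record names a cut of 25% in any replicate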
Bfl-1 A1 inh = inhibitors of the anti-apoptotic protein A1, read as caspase activation; caspase activation, % (concentration not given with the values); MEF A1-2A-BIM cells, Caspase-Glo 3/7 luminescence, 3 h; percent of clofoctol response, vehicle zero; AID 2462; 330,000 compounds, 0.066% hits;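 active = over half of replicate activation scores above 10%, or exactly half above 10 with the replicate mean above 10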;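 also: wells of about 30 µL received 50 nL stock; many hits fall short of the cut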
UCH37 inh = inhibitors of human deubiquitinating enzyme UCH37; Q9Y5K5; purified proteasome/UCH37, Ub-AMC cleavage fluorescence; inhibition, % (no concentration beside the values); 330,000 compounds, 0.33% hits; AID 588478;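 active = mean of two replicates above 20%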;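 also: 0% = compound-free wells with enzyme and 100% = wells lacking proteasome; stock transfer was 100 nL into about 20 µL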
Target sequence (Q9Y5K5 whole entry, looked up): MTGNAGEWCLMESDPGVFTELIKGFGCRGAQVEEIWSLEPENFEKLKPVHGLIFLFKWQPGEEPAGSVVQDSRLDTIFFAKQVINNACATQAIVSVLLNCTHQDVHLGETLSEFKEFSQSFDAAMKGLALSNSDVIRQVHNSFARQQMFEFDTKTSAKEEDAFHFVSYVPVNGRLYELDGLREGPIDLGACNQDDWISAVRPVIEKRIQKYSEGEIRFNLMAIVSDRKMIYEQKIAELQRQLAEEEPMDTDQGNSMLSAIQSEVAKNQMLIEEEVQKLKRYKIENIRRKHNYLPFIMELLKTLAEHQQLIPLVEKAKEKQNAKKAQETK
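Assay system: Proteasome-bound UCH37. Buffer or medium: pH 7.4 Tris-HCl (50 mM) with ovalbumin, ATP-MgCl2, DTT. Incubation: 30 min preincubation with enzyme, 25 min cleavage at room temperature. Measured by: fluorescence, ex 355 nm, em 460 nm. Read-out basis: percent inhibition. Control set: wells without proteasome as full block, compound-free enzyme plus substrate as uninhibited.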
B2AR ag = human beta-2 adrenergic receptor agonism by FAP. Am2.2-beta2AR cells, FAP receptor internalization, flow cytometry; reference of the scale not given here. response, % (test concentration not listed). 340,000 compounds, 0.43% hits. P07550;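 active = response above a set limit, near 3 SD of response in nonfluorescent compounds, cut at about 42% in these data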;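 also: stock transfer was 100 nL into about 11 µL; a reference agonist was the positive control; negative values mostly stem from fluorescent compounds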
HNF4A DNA FP = change in binding of human HNF4 alpha to DNA; P41235; HNF4a-FITC DNA binding, fluorescence polarization, 1 h; activity change, % at 10 µM; 360,000 compounds, 0.3% hits; AID 1224865; in the data active = activity change above about 30%, passing the limit was not always enough;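 also: controls were the assay level and a saturating level of protein; the project sought stronger binding though the title names inhibitors; some compounds called inactive have numbers as strong as hits; positive values seem to mean higher polarization but the record does not say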
Target sequence (P41235 whole entry, looked up): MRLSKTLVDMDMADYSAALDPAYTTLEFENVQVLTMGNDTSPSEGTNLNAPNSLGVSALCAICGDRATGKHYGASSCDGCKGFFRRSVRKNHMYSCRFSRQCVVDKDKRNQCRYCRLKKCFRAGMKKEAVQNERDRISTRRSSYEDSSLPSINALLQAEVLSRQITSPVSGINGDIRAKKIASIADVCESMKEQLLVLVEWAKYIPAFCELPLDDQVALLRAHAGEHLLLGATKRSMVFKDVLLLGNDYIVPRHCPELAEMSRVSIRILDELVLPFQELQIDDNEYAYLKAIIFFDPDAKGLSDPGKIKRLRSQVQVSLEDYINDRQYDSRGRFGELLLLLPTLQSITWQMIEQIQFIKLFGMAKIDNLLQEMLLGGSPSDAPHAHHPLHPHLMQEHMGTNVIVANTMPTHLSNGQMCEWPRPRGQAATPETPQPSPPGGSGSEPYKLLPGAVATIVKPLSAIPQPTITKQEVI
Vif A3G = HIV-1 Vif–A3G interaction blockers – biochemical, TR-FRET, GST-Vif 1-94, biotin-A3G peptide, dose response retest, primary screen (AID 1117319). TR-FRET GST-Vif / biotin-A3G peptide binding; higher % means a stronger effect; test concentration not given here; strong numbers were not always called active. 260,000 compounds, 0.57% hits. inhibition, %; hits with a dose series show IC50 in µM;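 active = above the screen mean plus three standard deviations and confirmed in dose response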;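 also: Vif residues 1-94 fused to GST binding biotinylated APOBEC3G peptide 110-148; 0% = full assay without inhibitor and 100% = GST in place of GST-Vif; retest series ran down from 100 µM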
* hit, by the source's call; . = no result given.

SMILES	E coli growth	LANA-H2B inh	Bfl-1 A1 inh	UCH37 inh	B2AR ag	HNF4A DNA FP	Vif A3G
NC(=O)c1c(NC(=O)CCCC(=O)O)sc2c1CCCCCC2	0.68	3.4	-1.6	1.2	3	2.8	7%
CCOc1ccc(NC(=O)c2c(N)n(C)c(=O)[nH]c2=O)cc1	0.83	4.8	-9.0	-0.4	-1	2.5	.
O=C(O)CN1C(=O)/C(=C\c2cc(Br)ccc2OCc2ccc([N+](=O)[O-])cc2)SC1=S	0.62	-0.7	-0.5	20*	-7	-5.4	13%
C=CCn1c(SCC(=O)Nc2nnc(CC)s2)nnc1-c1cccnc1	0.69	2.4	-0.6	-0.4	0	-3.0	22%
CC(C(=O)NC1CC1)c1ncc(C(F)(F)F)cc1Cl (stereo not drawn)	0.68	-3.9	-0.3	0.7	7	-1.0	.
CN1CCN(CCC(=O)Nc2cccc(F)c2)CC1	0.67	-4.4	-0.5	2.6	-20	1.0	2%
COC(=O)C1=C(C(=O)OC)[C@]2([C@H]3CCCCN[C@@H](Cc4ccccc4)C(=O)N3Cc3ccccc3)C=C[C@H]1O2	.	0.2	-0.1	-0.5	2	5.2	.
C=CCN(c1ccccc1Cl)S(=O)(=O)c1cc(C(=O)N2CCCC2)ccc1Cl	0.66	-0.2	-0.7	1.8	13	-1.0	20%
CCc1ccccc1NC(=O)C1CCN(C(=O)N2CCOc3ccccc32)CC1	0.76	-4.5	0.5	1.6	5	1.3	.
Cc1ccc(C(=O)NC(=S)Nc2ccccc2N2CCCC2)cc1[N+](=O)[O-]	0.69	3.6	0.2	5.0	0	1.8	-7%
O=C(CN1C(=O)C2C3C=CC(C3)C2C1=O)Nc1cccc(S(=O)(=O)N2CCCC2)c1 (stereo not drawn)	0.68	-3.4	1.1	3.1	-3	-1.0	28%
O=S(=O)(c1ccccc1)N1CCN(c2ccccc2)CC1	0.63	-3.9	-0.5	1.7	-2	-1.4	-7%
OC(CN1CCOCC1)CN1CCOCC1	0.74	7.7	0.2	0.8	3	-6.4	-4%
CC(C)CN(C(=O)COC(=O)CCCc1nc2ccccc2s1)c1c(N)n(Cc2ccccc2)c(=O)[nH]c1=O	0.66	2.1	-0.8	-0.9	25	1.7	-4%
CCCCC1(c2ccc(F)cc2)NC(=O)N(CC(=O)N2CCN(C(=O)c3ccco3)CC2)C1=O (stereo not drawn)	0.72	-6.2	-0.7	0.8	-1	-0.9	13%
C/C(Cc1ccccc1)=N\NC(=O)CNC(=O)c1ccccc1F	.	-1.8	-0.6	.	3	0.6	.
O=[N+]([O-])c1ccccc1N/N=C/c1c[nH]c2ccccc12	.	-7.0	0.0	.	2	-2.1	23%
Clc1ccc(C[n+]2cc(-c3ccccc3)n3c2CCC3)cc1Cl	0.66	2.8	0.2	5.5	-4	-1.9	.
O=C1c2oc3ccc(F)cc3c(=O)c2C(c2cccc(O)c2)N1CCCN1CCOCC1 (stereo not drawn)	0.68	1.5	1.4	2.2	-2	3.3	5%
Cc1cccc(OCC(=O)NCC(=O)N/N=C/c2cc(Br)cc(Br)c2O)c1	.	4.5	-0.3	.	9	2.6	.
COc1ccc(-n2nc(C(=O)NCC(=O)N3CCOCC3)c3ccccc3c2=O)cc1Cl	0.68	-4.3	2.0	-0.3	-9	-0.2	.
CCN(CC)C(=O)c1cn(CCC#N)nc1-c1ccc2c(c1)OCCO2	0.66	2.4	-0.2	4.5	0	2.6	3%
COc1cccc(N2CCN(c3ccc4nnc(CCC(=O)N5CCN(C)CC5)n4n3)CC2)c1	0.71	-2.4	0.5	7.3	0	1.0	.
COc1cccc(C(=O)Nc2sc3c(c2C#N)CCN(C(C)=O)C3)c1	0.66	4.6	-2.4	3.4	5	9.7	.
O=C(N/N=C/c1c[nH]c2ccccc12)c1ccc(O)c(O)c1	.	-0.1	0.0	.	-4	1.6	.
O=C(CSCC(=O)N1CCCCC1)Nc1nc(-c2ccccc2)c(-c2ccccc2)s1	0.78	-1.4	0.3	-2.4	-1	-0.5	-6%
CCOCCCNC(=O)C(NC(=O)c1ccc(=O)[nH]c1)c1ccc(C)cc1 (stereo not drawn)	0.69	2.8	0.2	5.2	14	0.6	-1%
Cc1cc(NC(=O)CS(=O)(=O)c2ccc(Cl)cc2)no1	0.72	-0.8	-0.6	5.0	-9	-0.8	.
NC(=O)c1cnn(-c2ccc3ccccc3c2)c1N	0.7	2.8	-1.6	-0.5	-16	3.3	4%
c1coc(C2=Nc3cccc4cccc(c34)N2)c1	0.66	-0.3	-0.4	6.6	2	-1.6	8%
Oc1ccc(/C=N/Nc2cccc(Cl)n2)c(O)c1	.	-8.1	-7.0	.	-9	-1.0	.
CCc1ccc(NC(=O)c2cnn(-c3ccccc3)c2C2CCNCC2)cc1	0.69	-2.8	0.2	4.1	-4	-2.3	-7%
COCCNC(=O)/C(C#N)=C/c1c(N2CCN(C)CC2)nc2c(C)cccn2c1=O	0.63	2.8	0.1	-48	4	0.4	6%
O=C(COC(=O)c1nc(Cl)ccc1Cl)NCCc1ccccc1	0.63	2.5	-0.1	3.8	-7	5.2	0%
CC1CCN(Cc2ccc(NC(=O)CC3Oc4ccccc4NC3=O)cc2)CC1 (stereo not drawn)	0.75	-1.2	0.7	-3.9	-1	1.9	-5%
S=C(NCc1ccccc1)Nc1ccc(Cl)cc1	0.6	-0.8	0.5	2.8	-6	7.1	.
N#Cc1ccccc1CCN1C(=O)c2ccccc2C1=O	0.71	1.6	-0.3	3.1	-6	1.2	.
CN1C(=O)C2(c3ccccc31)N(C)CC(c1ccccc1)C21SC(=S)N(Cc2ccco2)C1=O (stereo not drawn)	0.75	-6.1	0.3	2.5	7	2.0	5%
Fc1ccc(CO/N=C2\CCCc3nonc32)cc1	.	7.8	-1.6	.	-3	-0.1	2%
N#C/C(=C/c1ccccc1[N+](=O)[O-])C(=O)NCc1ccco1	0.68	-5.4	-0.4	-1.6	0	-2.4	.
COc1cccc(N2CCN(C(=S)Nc3ccc(C)cc3C)CC2)c1	0.7	2.5	0.0	3.0	7	-1.2	.
O=C(Nc1ccccc1F)Nc1cc(Cl)ccc1-n1cncn1	0.62	0.1	-0.2	1.6	-6	-0.3	-1%
O=C(Nc1nc2c(c(=O)[nH]1)CCCC2)C1CC1	0.71	0.9	-0.3	5.0	1	-0.2	-1%
COc1cccc(Sc2cc(N3CCOCC3)nc(-c3ccccc3)n2)c1	0.74	1.1	0.4	2.3	13	-2.9	22%
CSc1nnc(-c2ccccc2)c(-c2ccccc2)n1	0.67	-10	-0.3	5.0	-10	2.7	.
Cc1cc(/C=C2\SC(=O)N(CC(=O)Nc3ccccc3F)C2=O)c(C)n1C	0.73	4.7	0.5	-7.4	-7	10	4%
O=C(CNC(=O)c1ccccc1)N/N=C/c1cn[nH]c1-c1ccccc1	.	0.0	0.3	.	11	-4.3	4%
CCOC(=O)C1Nc2ccc(C)cc2C2C=CCC12 (stereo not drawn)	.	1.6	-1.4	2.5	2	-13	.
Cc1nnsc1S(=O)(=O)c1ccccc1	0.68	-0.5	0.6	0.0	3	1.1	1%
CCC(=O)Nc1sc2c(c1C#N)CCC2	0.69	0.0	-0.2	0.2	-3	0.8	5%
CCOc1ccccc1NC(=O)c1cc2ccccc2oc1=O	0.64	-8.7	-0.9	3.4	-3	3.6	6%
CC(=O)c1noc(C)c1C(=O)Nc1nccs1	0.74	-5.8	0.1	3.4	-3	1.5	4%
O=C(COc1ccc(C(=O)NCCN2CCOCC2)cc1)Nc1cccc(C(F)(F)F)c1	0.58	0.5	0.8	2.1	-5	-2.9	0%
CC(C)C(NS(=O)(=O)c1ccccc1)C(=O)OCC(=O)NNC(=O)c1ccccc1 (stereo not drawn)	0.66	.	.	0.1	-9	-0.2	-8%
COc1ccc(C#Cc2ccc3c(c2)c(=O)c2ccccc2n3C)cc1	0.73	-2.8	1.0	-54	-4	0.8	.
COc1ccccc1Cn1c(-c2ccccc2OC)nc2ccccc21	0.7	-5.6	0.5	6.1	-7	-1.6	>100µM*
CCCCCSc1ncccc1C(=O)O	0.65	0.5	0.5	1.9	2	-4.8	-6%
O=C(COc1ccc(-n2cnnn2)cc1)Nc1ccc(F)c(Cl)c1	0.69	-2.0	1.3	2.0	-4	3.0	-8%
Cn1c(=O)c(=O)n(C)c2cc(N3CCCC3)c(NS(=O)(=O)c3ccc(Cl)cc3)cc21	0.72	0.1	0.1	4.7	3	-4.6	.
COc1cccc(CN2CCN(CCCc3ccccc3)C(CCO)C2)c1O (stereo not drawn)	0.66	0.8	0.1	6.4	7	-1.9	.

As entered above:
`COc1ccccc1Cn1c(-c2ccccc2OC)nc2ccccc21` in E coli growth is entered as 0.7
`COc1ccc(C#Cc2ccc3c(c2)c(=O)c2ccccc2n3C)cc1` in HNF4A DNA FP is entered as 0.8
`CCCCCSc1ncccc1C(=O)O` in E coli growth is entered as 0.65
`CCOc1ccccc1NC(=O)c1cc2ccccc2oc1=O` in E coli growth is entered as 0.64

Remaining list, next part.
SMILES	E coli growth	LANA-H2B inh	Bfl-1 A1 inh	UCH37 inh	B2AR ag	HNF4A DNA FP	Vif A3G
O=C(O)C1C2CC(C(Br)C2Br)C1C(=O)O (stereo not drawn)	0.68	.	.	1.9	-1	2.9	-7%
CCC(C)(C)n1nnnc1C(c1ccc(F)cc1)N1CCC(C(N)=O)CC1 (stereo not drawn)	0.68	-0.9	0.0	3.7	-8	3.8	22%
Cc1ccc(CNC(=O)c2ccc(OCC(C)C)cc2)n1C	0.63	2.5	0.7	-9.1	5	2.1	6%
O=C(NCc1ccccc1)C12CC3CC(CC(C3)C1)C2	0.72	-5.3	0.1	0.1	1	-2.3	0%
O=C(CN1CCOCC1)Nc1cc(C(F)(F)F)ccc1Cl	0.71	0.1	2.6	0.7	-6	-2.3	-1%
CCCC(=O)Nc1nnc(Sc2ccc(N(C)C)cc2)s1	0.73	2.4	-0.3	2.9	-3	-1.7	3%
CC(O)(c1ccc(Cl)cc1)C(c1ccccc1)c1ccccn1 (stereo not drawn)	0.73	.	.	-1.1	4	2.9	-7%
O=C(CCCNS(=O)(=O)c1cccc2nsnc12)NCc1ccccc1	0.7	-2.6	-0.1	3.8	3	2.3	69%
CCCCNc1ccc2nsnc2c1[N+](=O)[O-]	0.67	-4.1	0.2	0.9	-3	-2.6	.
COc1ccc(C(=O)n2nc(C)cc2C)cc1OC	0.66	4.8	-0.5	-0.4	-2	1.7	11%
CC(C)Cn1c(N)c(C(=O)COC(=O)c2cc(-c3ccccc3)nc3ccccc23)c(=O)n(C)c1=O	0.72	-3.8	-0.5	-0.7	5	-1.2	-5%
COc1ccc2[nH]c(=O)c(CN(C(=O)c3cccnc3)c3cccc(C)c3)cc2c1	0.72	-3.1	0.6	-3.9	-8	-0.5	-2%
COc1ccc(CNC(=O)CS(=O)Cc2nc(-c3ccc(C)cc3)oc2C)cc1 (stereo not drawn)	0.7	13	1.0	2.1	9	0.2	2%
Cc1ccc(CSCC(=O)N(C)CC(=O)Nc2c(Cl)cccc2Cl)cc1	0.71	-2.4	0.2	3.0	0	-3.6	-1%
CCN(CC)c1ccc(NC(=O)COC(=O)Cc2ccsc2)cc1	0.68	.	.	1.2	7	1.4	5%
CCNc1nc(SCc2ccccc2)nc(N2CCOCC2)n1	0.75	-0.5	-0.9	4.7	4	1.0	16%

Compound profiles, from the list above. Order of values: E coli growth | LANA-H2B inh | Bfl-1 A1 inh | UCH37 inh | B2AR ag | HNF4A DNA FP | Vif A3G
Cc1ccc(CSCC(=O)N(C)CC(=O)Nc2c(Cl)cccc2Cl)cc1 across the screens: 0.71 | -2.4 | 0.2 | 3.0 | 0 | -3.6 | -1%
COc1ccc(CNC(=O)CS(=O)Cc2nc(-c3ccc(C)cc3)oc2C)cc1 (stereo not drawn) across the screens: 0.7 | 13 | 1.0 | 2.1 | 9 | 0.2 | 2%
